# High-throughput results (PubChem BioAssay)
# Cruzain Triton = inhibitors of Trypanosoma cruzi cruzain with detergent. P25779. 200,000 compounds, 0.43% hits. Potency, µM, inactives show max response, negative = inhibition, hits mostly inhibitors. purified cruzain, Z-FR-AMC fluorescence, 0.01% Triton;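 note: plate controls were neutral wells for no effect and buffer without enzyme for full effect; nearly all actives have a fitted effect of over 40% in size; top concentration of the series not given in the record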
# Target sequence (P25779 123-467 limits assumed): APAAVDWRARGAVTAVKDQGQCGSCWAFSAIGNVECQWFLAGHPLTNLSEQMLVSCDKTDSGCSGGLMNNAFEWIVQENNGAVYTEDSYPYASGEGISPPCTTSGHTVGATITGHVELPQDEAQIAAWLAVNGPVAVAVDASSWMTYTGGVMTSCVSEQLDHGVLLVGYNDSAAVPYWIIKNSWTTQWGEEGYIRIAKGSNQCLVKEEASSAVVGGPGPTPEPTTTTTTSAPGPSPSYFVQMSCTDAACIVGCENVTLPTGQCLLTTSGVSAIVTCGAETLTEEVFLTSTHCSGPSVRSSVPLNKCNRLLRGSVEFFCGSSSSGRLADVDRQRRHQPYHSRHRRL
#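 Cruzain (1.5 nM) preincubated 15 min at RT with compound in 100 mM sodium acetate pH 5.5, 5 mM DTT, 0.01% Triton X-100. Reaction started with 2 uM Z-FR-AMC; AMC fluorescence (ex 360/em 450 nm) change over 60 s gave rate.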
# Cruzain inh noDet = cruzain (T. cruzi) inhibition without detergent. 200,000 compounds, 2.3% hits. AID 1476. Potency, µM, for the others: max response, negative = inhibition, actives largely listed as inhibitors. purified cruzain, Z-FR-AMC fluorescence, no detergent. P25779;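 note: plate controls were enzyme without inhibitor for no effect and buffer without enzyme for full effect; nearly all actives have a fitted effect of over 40% in size; top concentration of the series not given in the record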
#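 Purified cruzain at 1.5 nM, pre-incubated 15 min with compound at room temperature in 100 mM sodium acetate pH 5.5, 5 mM DTT, 0.00005% Triton X-100. Reaction started with 2 uM Z-FR-AMC; AMC fluorescence increase over 60 s gives rate.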
# 2A StopGo = lowers the luciferase signal of an FMDV 2A StopGo reporter; human cells with a luciferase reporter of 2A StopGo recoding; control for the full effect not named in the record; Potency, µM (titrated, usually from 57.9 µM), for inactives: at the top dose signal change, negative = less light; 410,000 compounds, 1.2% hits; AID 1159524; active = well fitted falling curve with a large enough effect; inconclusive = small, poorly fitted or top-dose-only effect; inactive = no such curve, though single readings can be large or run the other way; tested in HEK293T cells; note: % is set by controls: 0 for no effect and ±100 for the full control effect; nearly all actives have a fitted effect of over 45% in size; luciferase light after 4 h
# LASV entry inh = inhibitors of Lassa virus binding or cell entry; Lassa virus pseudotype entry inhibition, cell reporter; control for the full effect not named in the record; Potency, µM (highest dose often 37.9 µM), for the others: top-dose activity change, negative = inhibition, hits mostly inhibitors; 300,000 compounds, 1.2% hits; AID 540256; active means well fitted inhibition curve with a large enough effect; inconclusive means small, poorly fitted or top-dose-only effect, or effect the other way; inactive means flat fitted curve, though single readings scatter; tested in HEK293 cells; note: % is set by controls: 0 for no effect and ±100 for the full control effect; nearly all actives have a fitted effect of over 50% in size; luciferase read-out
# NS1 function inh = blocks influenza NS1 protein function; S. cerevisiae slowed by influenza A NS1, growth recovery by OD600; Potency, µM (titrated, usually from 46.1 µM), for the others: top-dose activity, positive = more growth; AID 2326; 270,000 compounds, 0.4% hits; active means well fitted rising curve with a large enough effect; inconclusive means small, poorly fitted or top-dose-only effect; inactive means no such curve, though single readings can be large or run the other way; note: nearly all actives have a fitted effect of over 50% in size
#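 Growth recovery, yeast-based: influenza A NS1 expressed in S. cerevisiae causes slow growth, and suppressors are detected by OD600. The parent strain without NS1 is used as positive control.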
# MARV entry inh = Marburg virus entry inhibition; Potency, µM (series often up to 37.8 µM), inactives show top-dose activity change, negative = inhibition, actives largely listed as inhibitors; Marburg virus pseudotyped entry inhibition, cell reporter; control for the full effect not named in the record; about a third of the inactives were read at about 46 µM; 300,000 compounds, 1.8% hits; active = well fitted inhibition curve with a large enough effect; inconclusive = small, poorly fitted or top-dose-only effect, or effect the other way; inactive = flat fitted curve, though single readings scatter; tested in HEK293 cells; about a fifth of its hits are not listed in these tables; note: % is set by controls: 0 for no effect and ±100 for the full control effect; luciferase read-out
# RE007 growth inh = less growth of the S. pombe RE007 Vpr strain; S. pombe RE007 Vpr strain, BacTiter-Glo ATP luminescence, 24 h; control for the full effect not named in the record; 360,000 compounds, 0.21% hits; Potency, µM (top dose mostly 92.2 µM), without a hit: at the top dose activity change, negative = less growth; AID 651644; active = well fitted falling curve with a large enough effect; inconclusive = small, poorly fitted or top-dose-only effect; inactive = no such curve, though single readings can be large or run the other way;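 note: % is set by controls: 0 for no effect and ±100 for the full control effect; nearly all actives have a fitted effect of over 50% in size; the assay follows cell death caused by Vpr and the record does not say whether a fall means rescue or toxicity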
#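 Fission yeast RE007 carrying one integrated HIV-1 vpr copy, seeded at OD 0.01 in PMG+AL medium with 23 nL pinned compound. Grown 24 h at 30 degrees; viability read by BacTiter-Glo luminescence after 5 min.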
# SARS PLpro yeast = blocks SARS-CoV papain-like protease in a yeast assay; S. cerevisiae expressing SARS-CoV PLpro, growth rescue; control for the full effect not named in the record; Potency, µM (top dose mostly 32.9 µM), without a hit: top-dose activity, positive = growth rescue; 330,000 compounds, 0.19% hits; active means well fitted rising curve with a large enough effect; inconclusive means small, poorly fitted or top-dose-only effect; inactive means no such curve, though single readings can be large or run the other way; note: 0% is about no effect; nearly all actives have a fitted effect of over 55% in size; growth read by luminescence after 48 h
# * marks the source's active call; other numbers are inactive results; ? = inconclusive; nt = no result given; & = joins results of further samples; [ ] = another dose, or the depositor's remark. Unless noted, calls come from the whole dose curve; as a rule, active = well fitted curve in the direction sought with a large enough effect; inconclusive = small, poorly fitted or top-dose-only effect, or another doubt; inactive = no such curve, though single readings can be large; an effect the other way counts as inactive or inconclusive. Potency is the fitted concentration of half-maximal effect.
SMILES,Cruzain Triton,Cruzain inh noDet,2A StopGo,LASV entry inh,NS1 function inh,MARV entry inh,RE007 growth inh,SARS PLpro yeast
CC(C)(C)OC(=O)N1CCC(C(=O)N[C@H](Cc2ccccc2)C(=O)O)CC1,3.4%,7%,8%,8%,-3%,21%,2%,-3%
CCCc1ccc(-c2ccc(F)c(N)c2)nc1,-4.9%,-5%,nt,?,-22%,?,-18%,4%
CC1CCCCN1CCNc1nc(=S)[nH]c2ccccc12 (stereo not given),1.4%,7%,17%,-5%,1%,-3%,5%,-2%
CC1CCC(C(=O)NC(C(=O)N2CCC(N3CCCCC3)CC2)C(C)C)CC1 (stereo not given),2.4%,-6%,-22%,13%,-1%,5%,1%[3.69 µM],0%
Cc1cc(NCCc2ccc(Cl)cc2)n2ncnc2n1,nt,nt,-19%,-3%[46.1 µM],0%,-29%[46.1 µM],13%,1%
CCN1CCc2c(C#N)c(NCc3ccccc3)nc(N(CC)CC)c2C1,1.5%,0%,?,15µM*,-10%,?,11%,-3%
CCOc1ccc2nc(SCC(=O)N3CCCc4ccccc43)sc2c1,-5.3%,-2%,-5%,-9%,-49%,0%,5%,-7%
COc1ccccc1/C=N/NC(=O)c1[nH]c(C)c(C(=O)N/N=C/c2ccccc2OC)c1C,-7.4%,-6%,-22%,-1%,?,19%,14%,-10%
CC(C)N1C(=S)SC(C)(C)C1n1oc(=O)n(-c2ccc(Cl)c(Cl)c2)c1=O (stereo not given),-2.6%,-8%,0%,-13%,-17%,-27%,1%,-13%
CC(O)[C@H](NC(=O)C1(c2ccccc2)CCN(C(=O)OC(C)(C)C)CC1)C(=O)O (stereo not given in full),-0.4%,2%,-21%,-20%,-8%,47%,16%,0%
Oc1c(C=Nc2cccnc2)sc2ccccc12,-12%,-16%,13%,-1%,-19%,17%&17%,?,-18%
COc1ccccc1CNS(=O)(=O)c1ccc2[nH]cc(C(=O)O)c(=O)c2c1,9.4%,-4%,-3%,0%,-5%,-3%,?,4%
COC(=O)C(NC(=O)Nc1ccccc1OC)C(C)C (stereo not given),0.9%,2%,7%,11%,-1%,?,5%,-4%
N#CCCN(C(=O)COC(=O)C1=COCCO1)c1ccc(F)cc1,nt,nt,-7%,2%,nt,20%,5%,nt
COC(=O)c1sccc1NC(=O)CSc1ccccc1NS(=O)(=O)c1ccc(Br)cc1,2.5%,?,-29%,-7%,?,-10%,5%,1%
Cc1ccc(NC(=S)NCc2ccc3c(c2)OCO3)c(C)c1,3.7%,2%,6%,3%,-24%,-4%[46.1 µM],17%,-8%
COc1ccc(N(CC(=O)NC2CCCCC2)C(=O)CNC(=O)c2ccco2)c(OC)c1,-1.4%,8%,-5%,-19%,-4%,-2%,-1%,14%
COc1ccc(C)cc1S(=O)(=O)N(CC(=O)O)c1ccccc1,5.5%,-3%,-8%,4%,7%,3%,0%,1%
CC12CCC(C(=O)NCCc3ccccc3)(OC1=O)C2(C)C (stereo not given),nt,nt,-3%,nt,3%,nt,9%,0%
COc1ccc(NC(=O)C2CCCN2S(=O)(=O)c2ccc3nc(-c4ccccc4)[nH]c3c2)cc1 (stereo not given),-1.5%,2%,-30%,0%[46.1 µM],nt,nt,nt,nt
O=C(Cc1cccs1)Nc1nc2c(s1)CCCC2,-3.7%,-6%,0%,2.6µM*,-32%,0.58µM*,?,-21%
CNC(=O)c1cccnc1Nc1cccc(C(F)(F)F)c1,-6.2%,12%,0%,1%,-39%,31%,-7%,-62%
Cc1nc2ccccc2nc(C)c1=NOCc1ccc(C#N)cc1,1.0%,1%,?,-2%,1%,?,22%,-6%
COc1cc(/C=N/n2nnnc2N)ccc1OCC#N,nt,nt,1%,nt,25%,nt,2%,3%
CCCC1/C(=N/O)CC(c2ccccc2)NC1c1ccccc1 (stereo not given),nt,nt,?,-30%[46.1 µM],nt,?,4%,-5%

# Next part:
SMILES,Cruzain Triton,Cruzain inh noDet,2A StopGo,LASV entry inh,NS1 function inh,MARV entry inh,RE007 growth inh,SARS PLpro yeast
CCOc1ccccc1NC(=O)CSc1nc(-c2cccs2)cc(C(F)(F)F)n1,-1.7%,-1%,-12%,0%[46.1 µM],nt,1%[46.1 µM],nt,nt
Oc1ccccc1-c1n[nH]c(-c2ccccc2O)n1,nt,nt,-3%,?,nt,?,?,nt
CCn1c(SCC(=O)NCc2ccc(C)cc2)nnc1-c1ccncc1,0.4%,3%,nt,-2%,-1%,26%,-10%,0%
OCc1nn2c(c1Br)NC(c1ccccc1)CC2C(F)(F)F (stereo not given),1.5%,-5%,-19%,-9%,-1%,13%,-7%,-2%
COc1ccccc1CN1CCCC(CNC(=O)c2cccc3ccccc23)C1 (stereo not given),nt,nt,-8%,nt,7%,nt,-9%,2%
O=C(CN1C(=O)c2cccnc2Oc2ccc(Cl)cc21)NCCCc1ccccc1,nt,nt,-29%,nt,6%,nt,5%,6%
Cn1c(=O)c2c(ncn2CC(=O)Nc2ccc3c(c2)OCO3)n(C)c1=O,nt,nt,-6%,31%,nt,4%,1%,nt
OC(CN1CCN(c2cccc(Cl)c2)CC1)C(c1ccccc1)c1ccccc1 (stereo not given),-9.1%,5%,?,?,-53%,?,0%,-15%
CC(=O)Nc1ccc(NC(=O)Oc2ccccc2)cc1,1.4%,-2%,46%[activator],?,2%,2%,1%,-1%
COc1cccc(C(=O)NCc2ccco2)c1OC,nt,nt,2%,nt,-6%,nt,-10%,0%
CCN(CC)CCNC(=O)c1ccc(NC(=O)C2CCN(S(=O)(=O)c3ccc4c(c3)OCCO4)CC2)cc1,nt,nt,-19%,-1%,nt,19%,-19%,-3%
Cc1cccc(N2CCN(C(=O)CCCn3c(=O)[nH]c4ccsc4c3=O)CC2C)c1 (stereo not given),nt,nt,16%,28%[46.1 µM],-16%,-23%[46.1 µM],-3%,-1%
C/C(=N/NC(=O)c1cccs1)c1ccc(NC(=O)COc2ccc(Cl)cc2)cc1,3.1%,5%,-4%,10µM*,3%,?,-14%,17%
COC(=O)c1sccc1NC(=S)OC,nt,nt,-3%,5%,5%,0%[46.1 µM],3%,-1%
COc1ccc(-n2c(C)c(C(C)=O)c3cc(OCC(N)=O)ccc32)cc1,nt,nt,-26%,?,-5%,?,14%,1%
Cc1ccccc1C(C(=O)NCc1ccccc1)N(Cc1ccco1)C(=O)c1ccccn1 (stereo not given),0.8%,5%,25%,?,0%,-20%,-1%,-5%
COc1ccc(CCNC(=O)CSc2nn(-c3ccccc3)c(=S)s2)cc1OC,-5.9%,21%,-25%,?,-2%,-8%,14%,-18%
CCOP(=O)(c1ccccc1)C1(O)CCCCC1 (stereo not given),-0.4%,-3%,-20%,8%,11%,?,13%,12%
CCNC(=O)C1CCCN1S(=O)(=O)c1ccc(C)cc1 (stereo not given),-0.6%,-1%,nt,0%,5%,6%,-1%,6%
Cc1cc(Br)c(S(=O)(=O)NCCN2CCOCC2)cc1C,-1.4%,12%,89%[activator],5%,-4%,17%,0%,4%
Cc1occc1C(=O)Nc1ccc([N+](=O)[O-])cc1Br,nt,nt,8%,nt,-16%,nt,-5%,-5%
CCN(Cc1cc(=O)oc2cc(C)ccc12)c1ccccc1,nt,nt,?,nt,14%,nt,15%,14%
O=C(CN1c2ccccc2Sc2ccccc21)NNC(=O)Nc1ccc(Cl)cc1,nt,nt,0%,?,0%,-21%,1%,0%
CCOc1ccc2nc(NCCNC(=O)CC)c(C#N)cc2c1,1.1%,12%,19%,2%,-16%,18%,17%,0%
Cc1cc(=O)oc(C)c1C(=O)NCc1ccco1,-20%,-4%,0%,27%,25%,11%,-6%,9%

# The list continues.
SMILES,Cruzain Triton,Cruzain inh noDet,2A StopGo,LASV entry inh,NS1 function inh,MARV entry inh,RE007 growth inh,SARS PLpro yeast
CN(C)CCN(C(=O)C1CCCCC1)c1nc2cc3c(cc2s1)OCO3,nt,nt,10%,nt,3%,nt,-1%,-2%
O=C(CSc1ncn[nH]1)Nc1ccc(Br)cc1Br,nt,nt,20%,-14%,nt,?,14%,0%
COCCCNC(=O)c1cc(Nc2ccc(OC)cc2OC)nc2ccccc12,nt,nt,-11%,nt,3%,nt,-13%,1%
COc1ccc(/C=C2\SC(=S)N(CCCC(=O)N3CCOCC3)C2=O)cc1OC,nt,nt,4%,-2%[46.1 µM],9%,-3%[46.1 µM],5%,1%
NC(=O)CCN1CCN(CCOC2Cc3cc(Cl)ccc3Sc3ccccc32)CC1 (stereo not given),-2.4%,2%,-18%,?,-11%,?,-1%,-18%
COc1ccc(Cn2c(=O)[nH]c3cc(C(=O)Nc4ccc(N5CCN(C)CC5)cc4)ccc32)cc1,0.0%,2%,-14%,0%,6%,?,5%,27%
CCc1cc(-c2[nH]ncc2-c2ccc([N+](=O)[O-])cc2)c(O)cc1OC,nt,nt,?,nt,-71%,nt,25%,-12%
Cc1c(C(=O)N(C)CCn2ccnc2C)oc2c(F)cccc12,nt,nt,-4%,6%[46.1 µM],16%,?,-13%,0%
CC(C)Sc1nnc(OC(=O)N(C)C)n1-c1ccccc1,nt,nt,-2%,4%,-2%,-1%,4%,1%
Cc1ccc(S(=O)(=O)Cn2nnnc2C(C(C)C)N2CCN(c3nc4ccccc4s3)CC2)cc1 (stereo not given),-5.2%,?,?,?,-2%,?,3%,-4%
O/N=C1\CCCc2ccccc21,nt,nt,-11%,14%,8%,?,7%,-1%
O=C(CC(c1ccccc1)c1cc(Br)ccc1O)N1CCCCC1 (stereo not given),nt,nt,1%,nt,-30%,nt,-15%,-2%
O=C(CN1C(=O)C2C3CC(C(Br)C3Br)C2C1=O)N1CCN(Cc2ccccc2)CC1 (stereo not given),nt,nt,-8%,-2%,-2%,?,-10%,-2%
CCOC(=O)C1(C)C=C(Nc2ccc(NC(C)=O)cc2)C(=O)N1c1ccc(NC(C)=O)cc1 (stereo not given),nt,nt,-1%,-19%,-1%,?,20%,0%
COc1ccc(Br)cc1CNCC1CCCO1 (stereo not given),nt,nt,-11%,nt,-11%,nt,-5%,2%
